# Mtb hypoxia inh: PubChem AID 1159583 | M. tuberculosis hypoxia-regulated fluorescent reporter, fluorescence | fluorescence inhibition, % (no concentration beside the values) | 0.1% of 300,000 active;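 active = 35 to 45% if threefold the growth effect, above 45% if 1.5-fold the growth effect; inactive = the rest, general growth blockers included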;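 also: wells of about 50 µL received 100 nL stock; 0% = vehicle wells and 100% = reference inhibitor wells; whole bacteria with a GFP reporter of the hypoxia response; strong numbers were not always called active; many hits fall short of the cut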
# BJeLR viability: MLPCN primary cell-based screen for lethality selective to Ras in HRASV12 cells; 0.17% of 300,000 active; inhibition, % (concentration not given with the values); AID 1554, 2009; BJeLR (HRASV12) viability, CellTiter-Glo ATP luminescence, 48 h; reference of the scale not given here;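 active = replicate mean above 50%; inconclusive = above 50% but judged a plate artefact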;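 also: 50 nL library stock added to about 25 µL; numbers are from one replicate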
# Sa RN4220 lethal: growth inhibition of S. aureus RN4220, primary screen, OD600. 16 h. inhibition, % (concentration not given with the values). 0.33% of 330,000 active;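 active = z-score of -3 or lower and OD600 up to 0.18 on both plates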;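 also: plate controls were untreated cells for no effect and reference antibiotic for full effect; stock transfer was 100 nL into about 80 µL; one replicate is shown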
# Bead autofluor: flagged as autofluorescent in microsphere protease counterscreen; 3.1% of 360,000 active; fluorescence intensity (test concentration not listed); compound autofluorescence counterscreen, microsphere flow cytometry; hits give high values;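 active = at least 3 SD above the mean of all compounds, about 16000 in these data; inconclusive = too few beads counted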;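 also: 100 nL of 1 mM stock went into each well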
# PrP 5UTR inh: inhibition of PrP 5' UTR reporter expression; cell-based PrP 5' UTR mRNA reporter, plate reader; inhibition, % (concentration not given with the values); 0.35% of 340,000 active; AID 488862, 2010;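 active = every replicate at 50% or more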;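 also: 0 = median of the neutral control wells; tested in H4 reporter cells; numbers are from one replicate; inactives centre near -14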
# ugtP null kill: growth inhibition of ugtP-null S. aureus, primary screen, RN4220 ugtP deletion, OD600. 16 h; some inactives read as strong as hits. growth inhibition, % (no concentration beside the values). 0.54% of 330,000 active;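 active = z-score under -3 and OD600 up to 0.15 on both plates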;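 also: plate controls were untreated wells for no effect and antibiotic for full effect; wells of about 80 µL received 100 nL stock; the first replicate is given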
# Mtb hypoxia inh growth: second read-out of Mtb hypoxia inh, no call of its own (marks repeat the call); growth inhibition, %; measured here: M. tuberculosis growth (absorbance);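 0% = vehicle and 100% = reference antibiotic; read after six days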
# The depositor's hits bear a star; ? = inconclusive; nt = no result given; & = joins results of further samples. Rows are unselected. Share with any hit: about 4%.
# Key to letters – A = Mtb hypoxia inh; B = Mtb hypoxia inh growth; C = BJeLR viability; D = Sa RN4220 lethal; E = Bead autofluor; F = PrP 5UTR inh; G = ugtP null kill
1	Nc1c(S(=O)(=O)c2ccccc2)c2nc3ccccc3nc2n1Cc1ccco1
  A = -6; B = 7; C = -8; D = -0.1; E = ?; F = -17; G = -11

2	NS(=O)(=O)c1ccc(O)c(N2C(=O)c3cccc4c(C(=O)O)ccc(c34)C2=O)c1
  A = 5; B = -12; C = -4; D = 0.2; E = 2548; F = -22; G = 6

3	CC1CCCCN1CCn1c(=S)[nH]c2cc3c(cc2c1=O)OCO3 (stereo not drawn)
  A = 9; B = 7; C = -12; D = 2.2; E = 4613; F = -14; G = 6

4	Cc1cc2oc(C(=O)N(Cc3ccccc3)c3ccccn3)cc(=O)c2cc1Cl
  A = 2; B = 15; C = 2; D = 3.5; E = 6393; F = nt; G = 1

5	CCCCC1CC(CSc2ncn[nH]2)OC1=O (stereo not drawn)
  A = 6; B = 13; C = -2; D = 2.6; E = 4202; F = -23; G = 1

6	Cc1ccccc1-c1ncc(CN2CCN(C3CCCC3)C(CCO)C2)cn1 (stereo not drawn)
  A = 16; B = 11; C = 9; D = 2.4; E = ?; F = -27; G = 1

7	O=C1c2ccccc2C(=O)N1CC(O)CN1CCOCC1 (stereo not drawn)
  A = 7; B = -6; C = -5; D = -2.1; E = 4489; F = -15; G = 8

8	Cc1ccc(CNC(=O)COc2cc(O)c3c(c2)OC(C)(C)CC3=O)cc1
  A = nt; B = nt; C = 11; D = 8.7; E = 5750; F = -18; G = -3

9	CCOc1ccc(NC(=O)CN2CCN(CC(=O)Nc3ccc4c(c3)OCCO4)CC2)cc1
  A = nt; B = nt; C = nt; D = -1.7; E = 3714; F = -9; G = 2

10	Cc1ccc(S(=O)(=O)N(CC2CO2)c2cc(Cl)ccc2Cl)cc1 (stereo not drawn)
  A = -5; B = -1; C = 2; D = 7.5; E = 5306; F = -28; G = 4

11	Cc1cccc(CN2C3=NCCCN3c3ccccc32)c1
  A = 7; B = 5; C = -1; D = -0.4; E = 4044; F = -15; G = 4

12	Cc1nc2ccc(NC(=O)Cc3ccc(Br)cc3)cc2s1
  A = 1; B = 4; C = 5; D = -0.1; E = 4756; F = -5; G = -3

13	Cc1cc(C(=O)N(C)C)sc1-c1ccccc1
  A = nt; B = nt; C = -8; D = 9.9; E = 4033; F = -89; G = 1

14	CN(CC1CCN(CCc2cccc(C(F)(F)F)c2)CC1)C(=O)c1ccc(F)cc1F
  A = -2; B = 5; C = -6; D = -1.3; E = 4296; F = -7; G = 3

15	O=C(NNS(=O)(=O)c1ccc(F)cc1)c1cccc(O)c1
  A = 14; B = 1; C = -6; D = 1.3; E = 4671; F = -5; G = 12

# The closing seven entries of the part before open the next one.
# Key to letters – A = Mtb hypoxia inh; B = Mtb hypoxia inh growth; C = BJeLR viability; D = Sa RN4220 lethal; E = Bead autofluor; F = PrP 5UTR inh; G = ugtP null kill
9	CCOc1ccc(NC(=O)CN2CCN(CC(=O)Nc3ccc4c(c3)OCCO4)CC2)cc1
  A = nt; B = nt; C = nt; D = -1.7; E = 3714; F = -9; G = 2

10	Cc1ccc(S(=O)(=O)N(CC2CO2)c2cc(Cl)ccc2Cl)cc1 (stereo not drawn)
  A = -5; B = -1; C = 2; D = 7.5; E = 5306; F = -28; G = 4

11	Cc1cccc(CN2C3=NCCCN3c3ccccc32)c1
  A = 7; B = 5; C = -1; D = -0.4; E = 4044; F = -15; G = 4

12	Cc1nc2ccc(NC(=O)Cc3ccc(Br)cc3)cc2s1
  A = 1; B = 4; C = 5; D = -0.1; E = 4756; F = -5; G = -3

13	Cc1cc(C(=O)N(C)C)sc1-c1ccccc1
  A = nt; B = nt; C = -8; D = 9.9; E = 4033; F = -89; G = 1

14	CN(CC1CCN(CCc2cccc(C(F)(F)F)c2)CC1)C(=O)c1ccc(F)cc1F
  A = -2; B = 5; C = -6; D = -1.3; E = 4296; F = -7; G = 3

15	O=C(NNS(=O)(=O)c1ccc(F)cc1)c1cccc(O)c1
  A = 14; B = 1; C = -6; D = 1.3; E = 4671; F = -5; G = 12

16	CCCCCn1c(=O)c(F)cn(Cc2ccc(OC)c([N+](=O)[O-])c2)c1=O
  A = 8; B = 10; C = 5; D = 2.2; E = 6039; F = -19; G = 4

17	CC(=NOC(=O)c1ccc(Cl)cc1Cl)c1oc(C)nc1C
  A = 3; B = -4; C = nt; D = 3.3; E = nt; F = nt; G = 1

18	CC(=O)Oc1ccc(C(=O)[C@H]2[C@H]3C(=O)N(c4ccc(C)cc4)C(=O)[C@H]3[C@@H]3C=CC=NN32)cc1
  A = -5; B = 0; C = -13; D = 2.4; E = 11077; F = -18; G = 0

19	c1ccc(CSCCc2ccncc2)cc1
  A = nt; B = nt; C = 4; D = nt; E = 2430; F = -10; G = nt

20	COc1ccc2[nH]c(C(=O)N3CCNCC3)cc2c1OC
  A = -4; B = 2; C = 12; D = 8.3; E = 3766; F = -6; G = 15

21	CCc1nnc(NS(=O)(=O)c2ccc(NC(=O)c3cccc(Cl)c3)cc2)s1
  A = 6; B = 7; C = 13; D = -2.2; E = 4248; F = -37; G = 0

22	Cc1ccc(C2C3=C(CC(C)(C)CC3=O)N=C3c4ccccc4C(=O)C32)cc1 (stereo not drawn)
  A = -5; B = 9; C = -5; D = -3.0; E = 1992; F = -2; G = -29

23	COC(=O)c1ccc(NC(=O)Nc2ccc(F)cc2)cc1
  A = 12; B = 12; C = 11; D = -5.4; E = 2768; F = -59; G = -39

24	CC(C)C[C@H]1COCCS(=O)(=O)N1Cc1cccc(Cl)c1
  A = nt; B = nt; C = -6; D = nt; E = 4166; F = -19; G = nt

25	O=C(c1ccc(F)cc1F)N1CCCC(c2nc(-c3ccc(F)cc3)no2)C1 (stereo not drawn)
  A = 6; B = -4; C = -1; D = -3.0; E = nt; F = -6; G = 7

26	O=C(c1ccccc1-n1cccc1)N1N=C(C(F)F)CC1(O)C(F)F (stereo not drawn)
  A = 7; B = -4; C = -23; D = 9.2; E = 2357; F = -21; G = -5

27	CCOC(=O)C1C2COc3ccccc3C2N2C(=O)N(c3cccc(Cl)c3)C(=O)[C@@]12C (stereo partly drawn)
  A = 7&1; B = -4&2; C = nt; D = 2.1&-0.3; E = nt; F = nt; G = -3&2

28	CC(=O)Nc1ccc(S(=O)(=O)N(C2=NCC(C)S2)c2ccccc2)cc1 (stereo not drawn)
  A = nt; B = nt; C = -6; D = 8.7; E = 4538; F = -44; G = -16

29	Fc1cccc(Cl)c1CNc1ccc(N2CCCC2)cc1
  A = 5; B = -2; C = -3; D = 4.9; E = 2305; F = -30; G = -4

30	Cc1ccc2c(Cl)cc(Cl)c(OCC(=O)Nc3cccc(S(=O)(=O)N(C)C)c3)c2n1
  A = 10; B = 5; C = 4; D = 1.4; E = 2287; F = -15; G = -15

31	COc1ccc(NC(=O)NNC(=O)c2ccc(Cl)cc2Cl)cc1OC
  A = 12; B = 4; C = -5; D = 0.4; E = 4912; F = -9; G = 2

32	CCOc1ccc(NC(=O)CN2C(=O)C3CCCN3C2=O)cc1 (stereo not drawn)
  A = nt; B = nt; C = -4; D = 1.3; E = 4771; F = -5; G = -3

33	COc1ccc(NS(=O)(=O)c2cc(NC(=O)C3CC3)ccc2N2CCOCC2)cc1
  A = 11; B = 1; C = -1; D = 1.0; E = 5579; F = -34; G = 0

34	O=C(O)c1ccc(C=NN2CCN(C3c4ccccc4-c4ccccc43)CC2)cc1
  A = 15; B = 8; C = nt; D = 11; E = nt; F = nt; G = 10

35	O=[N+]([O-])c1cccc(CSC2=NCCN2S(=O)(=O)c2ccccc2)c1
  A = 4; B = 6; C = 7; D = 4.8; E = 5326; F = -11; G = 4

36	O=C(CCC(=O)Nc1ccccc1Cl)NNC(=O)COc1ccc([N+](=O)[O-])cc1
  A = 8; B = 3; C = nt; D = 0.8; E = nt; F = nt; G = 4

# Assay outcomes from PubChem BioAssay.
